NPYLR7 agonist: agonists of mosquito NPYLR7 receptor, primary screen, cell-based, Aedes aegypti, calcium fluorescence, mosquito biting behavior; HEK293T NPYLR7/Galpha15, GCaMP6s calcium fluorescence; hit rate 0.15% among 270,000; Aedes aegypti neuropeptide Y-like receptor 7 (NPYLR7); activation, % at 10 µM; in the data active means activation above about 40%;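 further: 0% = vehicle and 100% = reference agonist at the receptor; some compounds past the cut are filed as inactive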
NPYLR7 agonist max-min: also measured in NPYLR7 agonist; calls as there; activation, %; measured here: Max-Min RFU normalised activation; some inactives read as strong as hits;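 span of the calcium signal over five minutes; 0% = vehicle and 100% = native peptide agonist; compound fluorescence can raise it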
Starred values were filed as active, the others as inactive; & = joins results of further samples.

SMILES	NPYLR7 agonist	NPYLR7 agonist max-min
CC1C(=O)N(c2ccccc2-c2ccccc2)CCN1C(=O)CCc1ccccc1 (configuration not stated)	-0.9	-0.4
Cc1nn(C)c(Cl)c1C(=O)NC(C)c1cccs1 (configuration not stated)	0.3	-0.5
Cc1ccc(-c2nc3cc(C)ccn3c2NC(=O)c2ccccc2)cc1	-1.3	-1.7
COc1ccc(OC)c(SCc2ccc(C(=O)N3C4CCC3CC(Oc3cccc(C(F)(F)F)c3)C4)cc2)c1 (configuration not stated)	17.5	3.1
Cc1ccc(C(=O)NC(C(=O)NC2CC2)C2CCN(C(=O)c3ccccc3F)CC2)cc1 (configuration not stated)	7.4	6.2
c1cc(-c2cc(C3CCN(Cc4ccc(-n5cncn5)cc4)C3)ccn2)ccn1 (configuration not stated)	0.5	-2.3
Clc1ccccc1NCc1coc(-c2ccccc2)n1	12.1	10.3
Cc1cc(C)c(-c2nc3cc(N)ccc3o2)c(C)c1	-5.1	-9.0
CCCc1nc(C)sc1C(=O)N1CCC(O)(c2ccccc2)CC1	20.5	10.2
CSc1nnc2c(n1)OC(c1ccc(Br)o1)Nc1ccc(Br)cc1-2 (configuration not stated)	3.6	0.9
Cc1cc2nc(-c3ccccc3)c(N3CCCN(C(=O)c4ccc(C(F)(F)F)nc4C)CC3)nc2cc1C	2.8	-2.1
Cc1ccc(S(=O)(=O)c2c(C)cc(C)n(CC(=O)NCc3ccccc3)c2=O)cc1	4.4	-2.5
Cc1ccc(C)c(NC(=O)CSc2ccc3nnc(-c4cccnc4)n3n2)c1	-2.5	-2.2
COc1ccc(C2CC(=O)C3C(=Nc4ccccc4NC3c3ccc(F)cc3)C2)cc1OC (configuration not stated)	-1.1	1.2
COC(=O)c1sc(NC(=O)COc2cccc(I)c2)c(C(=O)OC)c1C	-0.2	-1.3
O=c1[nH]c(=S)[nH]c2sc3c(c12)CCCC3	-0.6	-6.8
CCOc1c(C)cnc2c1c(=O)n(CC)c(=O)n2C	2.8	2.7
NC(=O)c1csc(C(=O)N(Cc2ccoc2)C2CCCCC2)c1	5.2	2.6
NC1(C(=O)O)CCN(Cc2ccc3c(c2)OCCO3)C1 (configuration not stated)	17.9	12.6
Cn1cc(NC(=O)N2CCCC2)c2ccccc21	-2.7	-7.7
Cc1cc(CNC(=O)c2cnn(-c3nccc(-c4cc(C)sc4C)n3)c2C)on1	11.1	3.4
CC(CN1CCCCC1)OC(=O)CC1(c2ccccc2)C(=O)c2ccccc2C1=O (configuration not stated)	-4.9	-7.9
C#CCCC(C#N)(C#N)c1ncc(-c2ccc(OC)cc2)cn1	-0.7	2.0
CC1CN(C(=O)c2cc3n(n2)CCN(Cc2ccc(Cl)cc2)C3=O)CC(C)O1 (configuration not stated)	14.0	6.4
CCC(C)C(=O)Nc1cccc(CNC(=O)c2ccc3c(c2)CCN3C(C)=O)c1 (configuration not stated)	10.9	5.9
CCc1nc2c(OC)cccn2c1N(C=O)CC(=O)N(C)C	13.2	-1.5
Cc1nn(-c2ccc(Cl)cc2)c(C)c1CC(=O)NC1(C)CCCC1	-1.5	-4.1
CC(C)c1[nH]n(-c2ccc(Cl)c(Cl)c2)c(=O)c1C1=C(N2CCN(C)CC2)C(=O)N(C(C)C)C1=O	11.4	12.3
CN1CCN(c2nc(Nc3ccc(Br)cc3)nc3ccccc23)CC1	-10.4	-16.3
CC(=O)c1ccc(NC(=O)c2nnn(-c3ccc4noc(-c5ccc(Cl)cc5)c4c3)c2C)cc1	2.8	2.5

Given field by field: part of the list above.
structure: C#CCCC(C#N)(C#N)c1ncc(-c2ccc(OC)cc2)cn1
  NPYLR7 agonist: -0.7
  NPYLR7 agonist max-min: 2.0
structure: CC1CN(C(=O)c2cc3n(n2)CCN(Cc2ccc(Cl)cc2)C3=O)CC(C)O1 (configuration not stated)
  NPYLR7 agonist: 14.0
  NPYLR7 agonist max-min: 6.4
structure: CCC(C)C(=O)Nc1cccc(CNC(=O)c2ccc3c(c2)CCN3C(C)=O)c1 (configuration not stated)
  NPYLR7 agonist: 10.9
  NPYLR7 agonist max-min: 5.9
structure: CCc1nc2c(OC)cccn2c1N(C=O)CC(=O)N(C)C
  NPYLR7 agonist: 13.2
  NPYLR7 agonist max-min: -1.5

Next compounds follow:
SMILES	NPYLR7 agonist	NPYLR7 agonist max-min
CC(O)CN1CCN(C(=O)c2cnc(-c3ccco3)s2)CC1 (configuration not stated)	0.4	-0.4
O=C(c1nnn(-c2ccccc2)c1CSc1ncccn1)N1CCOCC1	-1.8	-7.4
CCc1[nH]n(-c2cccc(C)c2C)c(=O)c1C1=C(N2CCC(C)CC2)C(=O)N(c2cc(C)ccc2OC)C1=O	3.3	11.9
O=S(=O)(CCc1ccccc1)N1CCN(c2ccc3nnc(-c4ccco4)n3n2)CC1	1.4	5.7
COc1ccccc1Cn1cnc2c([nH]c3ccc(F)cc32)c1=O	2.7	-1.3
O=C(O)c1occc1CS(=O)(=O)c1ccccc1	8.6	8.3
CCOC(=O)C1(Cc2ccccc2C)CCCN(C(=O)Nc2ccccc2F)C1 (configuration not stated)	9.4	11.7
O=C(Cc1ccc(F)cc1)N1CCCN(c2nc3ccccc3nc2-c2ccccc2)CC1	2.3	3.0
COc1ccc(C(=O)CSc2cc(C)nc3c(-c4ccccc4)c(C)nn23)cc1OC	-1.7	-5.6
CC(=NOCc1nc2c3c4c(sc3ncn2n1)CCCC4)c1cccs1	9.1	10.6
COc1cccc(OC)c1C(=O)OCc1ccoc1C(=O)O	-1.9	-2.0
COc1cc(NC(=O)Nc2ccc(N3CCC(C)CC3)c(C(=O)NC3CC3)c2)cc(OC)c1	-3.5	-3.6
COc1ccc(N2CCN(Cc3cc(=O)c(OC)cn3CC(=O)NC3CCCCC3)CC2)cc1	1.1	-2.2
Cc1c(C)n2c3c(=O)n(Cc4ccccc4)c(=O)n(C)c3nc2n1CCCO	8.7	2.8
Cc1ccc2c(c1)c(C#N)nn2C	2.2	-0.6
CCOCCCNC(=O)c1cc(NC(=O)Nc2ccc(C)cc2C)ccc1N1CCC(Cc2ccccc2)CC1	12.3	15.7
Cc1nc2c(=O)n(Cc3ccccc3Cl)nc(-c3cccs3)c2s1	2.5	-1.2
CC1=C(C(=O)NC2CC2)C2(CCCCC2)OC1=O	3.1	4.3
CCC(NS(=O)(=O)CC)c1ccccc1OC(F)F (configuration not stated)	2.3	1.4
CCOC(=O)c1nn(-c2ccccc2)c(=O)c2c(NC(=O)Cc3ccccc3)scc12	0.3	-1.7
CCc1nc2ccc(C(=O)NCc3ccccc3OC)cn2c1N(CC)CCOC	-4.9	-9.9
O=S(=O)(NCCNc1nc(-c2ccccc2Cl)nc2ccccc12)c1ccc(F)cc1	6.9	13.2
CN(Cc1ccccc1)C(=O)c1nn2c(C(F)(F)F)cc(-c3cccs3)nc2c1Br	-11.4	-14.7
Cc1cccc(OC(C)(C)C(=O)N2CCCC(c3ccn[nH]3)C2)c1C (configuration not stated)	-7.3	-14.8
COc1ccccc1NC(=O)C(=O)NCC1CCCN1S(=O)(=O)c1ccc(C)cc1 (configuration not stated)	9.3	2.8
Cc1nccn1CC1CCCN(Cc2nc(C)n3ccccc23)C1 (configuration not stated)	5.8	-6.3
CC(C)N(C)C(=O)CC1CCNCC1	-1.4	-3.7
CCN(C)c1ccc(CNC(=O)c2c(C)nn(C)c2Cl)cc1F	1.9	0.8
NC(=O)[C@@H]1CN2CCN(S(=O)(=O)c3ccccc3)C[C@@H]2[C@H]1c1ccccc1	5.8	6.1
CCC(Sc1nc(N)c(C#N)cc1C#N)C(=O)Nc1ccccc1 (configuration not stated)	0.9	-2.0
COCC(=O)N1C[C@H]2CNC[C@@]2(C(=O)N2CCC(Cn3cccn3)CC2)C1	-13.5	-17.1
Cc1noc(C)c1CC1(C)C(=O)Nc2ccc(S(=O)(=O)NC3CCCCC3)cc21 (configuration not stated)	0.2	2.3
CCc1sc(C(=O)Nc2ccc(S(=O)(=O)N(C)C3CCN(C)CC3)cc2)cc1C	2.7	-1.1
CCCCC[n+]1cccc2ccccc21	0.3	-7.0
Cn1c(=O)c2c(nc(SCC(N)=O)n2C)n(C)c1=O	-2.5	-4.0
O=C(NCc1cccnc1)C1COC2(CCN(C(=O)c3cccc(Cl)c3)CC2)N1C(=O)c1ccc(F)cc1 (configuration not stated)	0.7	8.4
CCc1nc2c(OCC(N)=O)cccn2c1N(C)C(=O)C(C)C	-3.2	3.4
Cc1cccn2c(Cn3cc(CC(C)c4ccccc4)nn3)cnc12 (configuration not stated)	0.5	0.1
COc1cc(OC)c(NS(=O)(=O)c2ccc(OC)c(Br)c2)cc1Cl	-1.4	-2.7
O=C(N1CCN(c2nc3nccc(-c4ccc5c(c4)OCO5)n3n2)CC1)C(Cl)(Cl)Cl	-2.9	-2.5
Cc1ccc(NC(=O)Cn2c(CN3CCOCC3)nc3sc4c(c3c2=O)CCC(C)C4)cc1 (configuration not stated)	13.5	8.0
CCc1nc2n(n1)C(=O)C(C(c1ccccc1Cl)N1CCOCC1)S2 (configuration not stated)	-4.4	-10.1
CCc1ccc(C(=O)N(CCN2CCOCC2)CC(=O)N(Cc2ccc(F)cc2)Cc2sccc2C)cc1	-5.8	2.0
NC(CC1CCCC1)c1ccc(Oc2ccccc2)cc1 (configuration not stated)	13.1	10.9
CC(C)Cn1c(C(C)O)nc2ccccc21 (configuration not stated)	-1.8	-1.4
CCN1C(=O)NC(c2ccc(Cl)cc2Cl)C2=C1CN(CCC(=O)N(C)Cc1ccco1)C2=O (configuration not stated)	-1.4	4.9
CCCCN(Cc1cccn1Cc1ccc(Br)cc1)C(=O)CN(CCOC)S(=O)(=O)c1ccc(Cl)c([N+](=O)[O-])c1	9.2	7.9
O=C(Cn1nnnc1CN1CCOCC1)N1CCCN(Cc2cccs2)CC1	4.2&-3.6	2.1&-5.5
CCc1cc(N2CCN(Cc3ncnn3CC)CC2)nc(N2CCCC2)n1	-3.8	-5.9
Cc1nccn1C(C)C(=O)NCc1cccnc1Oc1ccc(F)c(F)c1 (configuration not stated)	0.1	-4.1
Cc1ccc(-n2nc(C)c(-c3ccccc3)c2NC(=O)CN(C(=O)Nc2ccc(Cl)cc2)C(C)C)cc1	-0.7	1.8
Cc1cc(C)nc(Nc2nc(C(N)CCc3ccccc3)cs2)n1 (configuration not stated)	-2.0	-7.9
O=c1c2ccccc2c(=O)c2c1c(NC1CCCCC1)cc1oc3ccccc3[nH]c12	-7.8	-12.7
CC1(C)CC(=O)C2C(=Nc3ccccc3NC2c2ccco2)C1 (configuration not stated)	1.2	0.8
Cc1[nH]c2ccccc2c1C(C[N+](=O)[O-])c1ccccc1Cl (configuration not stated)	-4.2	-5.8
COc1ccc(-c2cnn3c(C)c(C(=O)NCCSCc4ccco4)cnc23)cc1	-7.3	-7.9
Nc1ncnc2c1c(-c1cnc3[nH]ccc3c1)nn2C1CCCC1	-9.1	-11.4
CC(C)n1c(/C=C/[C@H](O)C[C@H](O)CC(=O)O)c(-c2ccc(F)cc2)c2ccccc21	-0.5	0.2
Cn1cc(C(=O)NCc2ccccc2)c2[nH]c(=O)n(-c3ccc(Cl)cc3)c(=O)c21	0.6	0.1
CCOC(=O)CCNC(=O)N1CCCCC1c1cccc(OC)c1 (configuration not stated)	5.4	3.7

Of the compounds above, these have a COOH group.
SMILES	NPYLR7 agonist	NPYLR7 agonist max-min
NC1(C(=O)O)CCN(Cc2ccc3c(c2)OCCO3)C1 (configuration not stated)	17.9	12.6
O=C(O)c1occc1CS(=O)(=O)c1ccccc1	8.6	8.3
COc1cccc(OC)c1C(=O)OCc1ccoc1C(=O)O	-1.9	-2.0
CC(C)n1c(/C=C/[C@H](O)C[C@H](O)CC(=O)O)c(-c2ccc(F)cc2)c2ccccc21	-0.5	0.2

New compounds follow:
SMILES	NPYLR7 agonist	NPYLR7 agonist max-min
O=C(C=Cc1ccc([N+](=O)[O-])cc1)c1ccc(F)cc1	5.7	2.8
Cc1c(C(=O)NCc2cccc(C(F)(F)F)c2)sc(=O)n1Cc1ccc(S(=O)(=O)N(C)C)cc1	-11.4	-1.1
O=C(CSc1ccc2nnc(-c3ccncc3)n2n1)NCCc1ccccc1	0.9	-0.6
COC(=O)c1nc2n(n1)CCCN2S(=O)(=O)/C=C/c1ccccc1Cl	-1.7	-3.8
O=C(CC1COCCN1Cc1ccc(C(F)(F)F)cc1)c1ccco1 (configuration not stated)	-6.8	41.9
COc1cc2[nH]c(Nc3ccc(Cl)cc3)c([N+](=O)[O-])c2cc1OC	-0.2	0.6
COc1ccc(CC(=O)N2CCC3(CC2)OCc2cc(-c4ccc(F)cc4)ccc2O3)cc1	4.0	-7.7
COc1cc(C(O)c2nc(-c3csc4ccccc34)cs2)ccc1F (configuration not stated)	6.0	5.6
CCC(C)c1ccc(NC2=NCCCCC2)cc1 (configuration not stated)	-3.5	-3.2
COc1c(S(=O)(=O)N2CCN(c3cccc(C)c3C)CC2)ccc(Cl)c1Cl	4.3	-0.2
O=C(O)c1cc(-c2cccnc2)cc(S(=O)(=O)N2CCOCC2)c1	6.8	7.5
CCOC(=O)c1c(N=Cc2nc(-c3ccccc3)oc2O)sc(C)c1C	-4.7	-12.8
Cc1ncccc1CNc1c(C)c(C)nn1CCO	3.8	1.1
CNc1nc2cnc(Nc3ccc(SC)cc3)cc2n1CCOC	2.4	-8.6
COc1ccc(-n2nnc3c(N4CCN(C(=O)CSCc5ccccc5)CC4)ncnc32)cc1	-11.9	-16.2
C=CCn1c(=NC(=O)CN2C(=O)c3ccccc3C2=O)sc2cc(C)ccc21	4.5	1.4
O=C(c1cccc([N+](=O)[O-])c1)N1CCN(c2cc(Oc3ccc(Cl)cc3)ncn2)CC1	11.8	13.6

Compound activity as filed in PubChem BioAssay.

The list is partial; count on the stated rates, not on these rows.
